HSV replic up – enhancers of HSV replication in host cells, fold increase, host cell viability. HSV replication augmentation in cells. maximum fold increase. actives 0.005% (n = 220,000);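 active means peak rise of 1.5-fold or more in the series; inconclusive means self-fluorescent or not available for retest; tested in PC3 cells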;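 further: first round at 10 µM; read as green reporter fluorescence; hits show the peak of a series up to 25 µM; 1 = signal of infected wells without compound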
PKD1 kinase inh – inhibitors of human PKD1 kinase, biochemical, fluorescence polarization; inhibition, %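 (about 10 µM by stock and volumes)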; actives 0.056% (n = 200,000); PKD1 kinase fluorescence polarization assay; Serine/threonine-protein kinase D1 (Homo sapiens), Q15139;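 active means inhibition of 50% or more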;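 further: controls were vehicle for no effect and a reference inhibitor for full effect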
RGS16-Gao HTS – modulators of RGS16 binding to Galphao, primary screen, biochemical, human proteins, multiplexed bead flow cytometry. actives 0.38% (n = 220,000). Regulator of G-protein signaling 16 (Homo sapiens) + Guanine nucleotide-binding protein …. binding response (% of control), % at 10 µM. bead-based flow cytometry RGS16-Galphao binding, fluorescence; actives lie on both sides. AID 1441, 2008;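 active means below 25% or above 175%, edge rows of some plates excepted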;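 further: Galphao activated by GDP with aluminum fluoride before binding; 100% = wells without compound and 0% = beads without RGS; some results beyond the cut were filed as inactive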
Target sequence (O15492 whole entry, looked up): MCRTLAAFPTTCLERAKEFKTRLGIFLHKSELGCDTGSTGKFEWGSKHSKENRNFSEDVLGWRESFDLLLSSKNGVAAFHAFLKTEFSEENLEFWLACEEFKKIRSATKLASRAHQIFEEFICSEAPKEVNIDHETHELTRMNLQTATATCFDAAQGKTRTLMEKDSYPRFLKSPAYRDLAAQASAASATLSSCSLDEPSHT
Target sequence (P09471 whole entry, looked up): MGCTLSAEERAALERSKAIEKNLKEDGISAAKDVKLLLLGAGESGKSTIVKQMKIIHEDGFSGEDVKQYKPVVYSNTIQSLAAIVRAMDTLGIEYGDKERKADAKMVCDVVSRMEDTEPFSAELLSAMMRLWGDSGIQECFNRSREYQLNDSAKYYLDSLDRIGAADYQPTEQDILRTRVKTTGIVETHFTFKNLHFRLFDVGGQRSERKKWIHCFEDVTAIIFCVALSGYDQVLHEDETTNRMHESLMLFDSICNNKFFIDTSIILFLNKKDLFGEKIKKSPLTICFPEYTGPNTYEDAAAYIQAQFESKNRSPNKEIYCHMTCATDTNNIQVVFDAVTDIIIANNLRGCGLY
Insulin prom inh – inhibitors of insulin promoter-driven GFP, primary screen, imaging, TRM-6 cells (human fetal islet line), eGFP reporter, cell count. reporter expression induced with tamoxifen. inhibition, % at 2 µM. AID 1273, 2008. actives 0.9% (n = 130,000);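 active means inhibition above the mean plus 3 SD, with well images judged a real hit on visual review, cut at about 60% in these data, passing the limit was not always enough; inconclusive means inhibition over the cutoff but images rejected on review; inactive means inhibition not above the cutoff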
GALR2 agonist – GALR2 receptor agonists, primary screen, cell-based; actives 0.48% (n = 140,000); AID 803, 2007; GALR2-expressing cells, agonist activation read-out; Galanin receptor type 2 (Homo sapiens), O43603; activation, %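 (tested at 5 µM)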;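 active means above mean plus 3 SD of all compounds, about 5% in these data, not always enough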;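 further: 0% = vehicle buffer wells and 100% = reference agonist at full effect; tested in CHO reporter cells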
Target sequence (O43603 whole entry, looked up): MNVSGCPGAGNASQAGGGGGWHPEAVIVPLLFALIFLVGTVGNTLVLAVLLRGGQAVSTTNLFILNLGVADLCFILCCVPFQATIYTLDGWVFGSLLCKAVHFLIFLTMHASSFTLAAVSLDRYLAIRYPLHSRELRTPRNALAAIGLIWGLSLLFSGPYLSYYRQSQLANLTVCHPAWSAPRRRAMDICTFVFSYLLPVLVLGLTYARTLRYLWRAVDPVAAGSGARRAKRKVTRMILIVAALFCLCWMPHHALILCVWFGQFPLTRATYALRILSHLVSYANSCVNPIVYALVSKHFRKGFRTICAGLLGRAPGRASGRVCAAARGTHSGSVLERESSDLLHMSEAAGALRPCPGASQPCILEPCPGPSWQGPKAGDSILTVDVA
Insulin prom inh cell count – recorded beside Insulin prom inh, whose call it bears; normalized cell count, %; measured here: cell count, toxicity; reference of the scale not given here;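 cells exposed to compound for 48 h; stained nuclei by imaging scaled within each plate; lower means fewer cells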
HSV replic up primary fold – further read-out of HSV replic up, marked with its call; fold increase; compound at 10 µM; measured here: primary screen fold increase 10 uM; tested in PC3 cells;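 GFP signal in the first replicate; 1 = infected wells without compound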
The depositor's hits bear a star; i = inactive; ? = inconclusive; . = not tested or not shown.

SMILES	HSV replic up	HSV replic up primary fold	PKD1 kinase inh	RGS16-Gao HTS	Insulin prom inh	Insulin prom inh cell count	GALR2 agonist
CCC(Sc1nncn1C)C(=O)Nc1cc(C)on1 (stereo unspecified)	i	1.1	3	99	.	.	.
O=C1C2C3C=CC(C3)C2C(=O)N1c1ccc(Cc2ccncc2)cc1 (stereo unspecified)	i	0.91	-2	100	28	132	-0.5
CCOC(=O)N1CCC(N2Cc3cccc(C(=O)Nc4ccc(CC)cc4)c3C2=O)CC1	i	0.83	-7	95	7	53	-0.7
CC1CCCC(C)N1C(=O)C1CCCCC1 (stereo unspecified)	i	1	3	104	7	74	-0.2
C=C(Cl)COC(=O)[C@H]1C2C=CC(C2)C1C(=O)O (stereo partly specified)	i	0.98	-10	102	53	37	1.4
Cc1nn(C)c(C)c1N=Cc1c(O)ccc2ccccc12	i	1	3	105	.	.	-0.7
CCC(=O)Nc1ccc(C(=O)NNC(=O)C(c2ccccc2)c2ccccc2)cc1	i	0.95	-9	98	.	.	-0.7
O=C(Cc1ccccc1)N1CCCC(c2nc(-c3cccs3)no2)C1 (stereo unspecified)	i	1.1	-1	104	-25	97	-1.6
NC(=O)CC(NC(=O)c1ccccc1)c1ccc(NCCc2ccc(F)cc2)c([N+](=O)[O-])c1 (stereo unspecified)	i	0.9	.	96	.	.	.
S=C(Nc1ccccc1)Nc1cc(Cl)ccc1Oc1ccccc1	i	0.83	-7	99	36	124	-2.1
CCC(C)NC(=O)Cn1nc(C(F)(F)F)c2c1CCC2 (stereo unspecified)	i	0.98	-6	102	.	.	.
Cc1cc(C)nc(NC(=O)c2c(-c3ccccc3Cl)noc2C)c1	i	0.9	4	100	-75	85	0.4
CC/C(=N/Nc1ccccc1Cl)c1cnnc(-c2ccccc2)n1	i	0.98	-1	92	50	133	-5.2
CCc1nn(CC(=O)NCCCN(CC)Cc2ccccc2)c(=O)c2cc3sccc3n12	i	0.71	4	105	.	.	-0.3
O=C1c2ccccc2NC(c2cccc(F)c2)N1Cc1ccco1 (stereo unspecified)	i	0.83	0	53	-3	115	-2.1

Reprinted from the part before: 2 entries; new compounds follow.
SMILES	HSV replic up	HSV replic up primary fold	PKD1 kinase inh	RGS16-Gao HTS	Insulin prom inh	Insulin prom inh cell count	GALR2 agonist
CCc1nn(CC(=O)NCCCN(CC)Cc2ccccc2)c(=O)c2cc3sccc3n12	i	0.71	4	105	.	.	-0.3
O=C1c2ccccc2NC(c2cccc(F)c2)N1Cc1ccco1 (stereo unspecified)	i	0.83	0	53	-3	115	-2.1
O=C(CSc1nc2ccccc2[nH]1)N=Nc1c(O)[nH]c2ccccc12	i	0.95	2	155	35	68	-1.4
Cn1cnnc1SCC(=O)NN1C(=O)NC(C)(c2ccccc2)C1=O (stereo unspecified)	i	1	.	94	.	.	.
C/C(=N\NC(=O)CC1N=C(Cc2ccccc2)NNC1=O)c1ccc(Cl)cc1Cl (stereo unspecified)	i	0.68	-9	100	15	124	0.1
Cc1nc2nc(-c3ccco3)[nH]n2c(=O)c1C	i	0.9	0	110	31	84	0.3
COc1ccc(NC(=S)NCCSc2ccc(Cl)cc2)c(OC)c1	i	0.8	3	100	9	109	-2.0
CCn1c2ccccc2c2nnc(SCC(=O)NC(CC(C)C)C(=O)OC)nc21 (stereo unspecified)	i	0.87	3	104	17	59	-0.4
O=S(=O)(c1ccc(Br)s1)N1CCCCC1	i	0.91	1	75	-58	117	-5.1
Cc1cc(C)n(-c2cc(C(C)(C)C)nc3c(-c4ccccc4)cnn23)n1	i	0.87	.	105	.	.	.
O=C(OCCOc1ccc(Br)cc1)c1ccc(Cl)nc1	i	0.99	-3	118	-42	76	.
CCC1(c2ccc(F)cc2)NC(=O)N(CC(=O)Nc2ccc(C)c(S(=O)(=O)N3CCOCC3)c2)C1=O (stereo unspecified)	i	1	0	101	50	190	.
Cc1cc(-c2ccccc2)nc(N(C)NC(=O)c2c(F)cccc2F)c1S(C)(=O)=O	i	1.1	-1	98	35	61	-0.3
CC(C)CN(C(=O)CN1CCN(c2ccccc2F)CC1)c1c(N)n(CC(C)C)c(=O)[nH]c1=O	i	1.1	0	104	-13	63	-0.5
CCn1cc(C(=O)N2CCCCC2)c(=O)c2cc(S(=O)(=O)N3CCC(C)CC3)ccc21	i	0.88	-5	102	.	.	-2.0
O=[N+]([O-])c1ccc2c(c1)nc1n2CCN(c2ccccc2)C1	i	0.82	.	103	.	.	.
CC(C)(C)NS(=O)(=O)c1ccc(Oc2ncc(C(F)(F)F)cc2Cl)cc1	i	0.87	-2	103	-38	140	-2.2

An excerpt from above in order of the PKD1 kinase inh value, rising:
Molecule	HSV replic up primary fold	PKD1 kinase inh	RGS16-Gao HTS	GALR2 agonist
CCn1cc(C(=O)N2CCCCC2)c(=O)c2cc(S(=O)(=O)N3CCC(C)CC3)ccc21	0.88	-5	102	-2.0
O=C(OCCOc1ccc(Br)cc1)c1ccc(Cl)nc1	0.99	-3	118	.
Cc1nc2nc(-c3ccco3)[nH]n2c(=O)c1C	0.9	0	110	0.3
CCn1c2ccccc2c2nnc(SCC(=O)NC(CC(C)C)C(=O)OC)nc21 (stereo unspecified)	0.87	3	104	-0.4

Continuation.
SMILES	HSV replic up	HSV replic up primary fold	PKD1 kinase inh	RGS16-Gao HTS	Insulin prom inh	Insulin prom inh cell count	GALR2 agonist
O=C1CCc2cc(S(=O)(=O)NC(C(=O)NCc3cccnc3)c3ccccc3)ccc2N1 (stereo unspecified)	i	0.92	-8	100	.	.	-1.9
O=C1N/C(=N/N=C/c2ccccc2)SC1(c1ccccc1)c1ccccc1	i	0.95	-6	109	.	.	-0.8
COc1ccccc1N(C)S(=O)(=O)c1ccc(C(=O)OCC(=O)N2CCCCCC2)cc1	i	0.95	-3	98	.	.	.
CN(C)/C=C(\C=O)c1c(Cl)cccc1Cl	i	0.96	-2	98	.	.	.
O=C(NCCc1ccccc1)Nc1ccc2c(c1)OCO2	i	0.96	-5	97	.	.	.
O=C1CCc2cc(S(=O)(=O)NC(Cc3ccccc3)C(=O)N3CCN(c4ccccn4)CC3)ccc2N1 (stereo unspecified)	i	0.88	-1	100	7	123	.
CCN(CC)S(=O)(=O)c1ccc(OC)c(NC(=O)c2ccc3c(c2)OCO3)c1	i	0.95	-3	70	-56	80	.
Cc1nc2ccccc2c(=O)n1NC(=O)C1CC1C (stereo unspecified)	i	1	-3	107	.	.	.
O=C(CN1CCOCC1)N/N=C/C=C/c1ccccc1	i	0.9	0	117	0	40	.
O=C(NCc1ccco1)c1cccc(S(=O)(=O)N2CCOCC2)c1	i	0.73	-4	103	-11	98	-1.6
O=C(O)c1cccc(N=NN2CCOCC2)c1	i	1.1	-11	99	42	97	.
COC(=O)c1ccc(Cn2nc(C)c(Br)c2C)cc1	i	0.93	-10	109	.	.	-2.4
Nc1nc(=S)[nH]c2c1C1(CCCC1)Cc1ccccc1-2	?	.	12	99	.	.	-2.3
CCC1(CC)NC(=O)N(CC(=O)OCC(=O)NC(=O)c2ccccc2)C1=O	i	0.94	-4	75	.	.	.
CC(=O)Nc1ccc(NS(=O)(=O)c2ccc3[nH]c(=O)[nH]c3c2)cc1	i	0.99	-2	110	-17	139	.

Of the compounds above, these contain a CF3 group:
SMILES	HSV replic up	HSV replic up primary fold	PKD1 kinase inh	RGS16-Gao HTS	Insulin prom inh	Insulin prom inh cell count	GALR2 agonist
CCC(C)NC(=O)Cn1nc(C(F)(F)F)c2c1CCC2 (stereo unspecified)	i	0.98	-6	102	.	.	.
CC(C)(C)NS(=O)(=O)c1ccc(Oc2ncc(C(F)(F)F)cc2Cl)cc1	i	0.87	-2	103	-38	140	-2.2

The list goes on:
SMILES	HSV replic up	HSV replic up primary fold	PKD1 kinase inh	RGS16-Gao HTS	Insulin prom inh	Insulin prom inh cell count	GALR2 agonist
O=C(NNc1ccccc1[N+](=O)[O-])Nc1cccc(Cl)c1	i	0.74	.	106	.	.	.
Cc1ccc(-c2nc3ccccc3[nH]2)cc1NC(=O)c1sc2cc(Cl)ccc2c1Cl	i	0.97	-11	100	.	.	-1.3
CCC(Sc1nc(-c2ccccc2)c(C#N)c(=O)[nH]1)C(=O)Nc1nnc(C)s1 (stereo unspecified)	i	0.93	6	94	-23	100	-1.4
CCOC(=O)c1noc(C)c1C(=O)Nc1cccc(F)c1	i	1	10	101	22	40	-2.6
COc1ccc(N2CC(NC(=O)N3CCc4ccccc43)CC2=O)cc1OC (stereo unspecified)	i	1.1	6	100	67	93	.
COC(=O)c1cc(Br)c(=O)n(-c2cccc(F)c2)c1	i	1	5	108	-13	50	-1.4
COc1ccc(NC(=O)CCc2c(C)nc3nc(C)nn3c2C)cc1	i	0.87	0	96	21	126	-0.6
Cc1cc(C)nc(N/N=C/C2=C(N3CCOCC3)C(=C\c3ccc(Cl)cc3)/CC2)n1	i	1	-2	90	9	111	-0.4
Cc1cc(C=C2C(=O)c3ccccc3C2=O)c(C)n1C	i	1.2	10	117	-25	81	-2.8
Cc1nc(CNS(=O)(=O)c2ccccc2F)cs1	i	1	-6	108	5	103	0.0
Cc1ccc(N(CC(O)Cn2nc(C)cc2C)S(=O)(=O)c2ccc3ccccc3c2)cc1 (stereo unspecified)	i	0.89	-2	95	27	69	0.0
CC(=O)c1c(C)[nH]c(=S)c(C#N)c1-c1ccc(Cl)cc1	i	1	.	104	.	.	.
Cc1ccc2c(c1)[C@@H]1CN(C)CC[C@@H]1N2S(=O)(=O)c1ccc(F)cc1	i	0.92	-5	101	.	.	-2.5
Cc1cccc(NC(=O)CN2CCSc3ccccc32)c1	i	0.89	2	101	33	181	.
CCOC(=O)N1CCN(c2c(NCCCN3CCCC(C)C3)c(=O)c2=O)CC1 (stereo unspecified)	i	0.95	7	106	.	.	-1.5
Oc1cccc2cnccc12	i	1.2	.	91	.	.	.
O=c1ccn(-c2cccc(C(F)(F)F)c2)nc1-c1ccn(-c2cccc(Cl)c2)n1	i	0.93	-6	106	-13	103	-0.9
CN1CCc2ccccc2C1Cc1ccccc1NC(=O)c1sc2ccccc2c1Cl (stereo unspecified)	i	1.1	.	120	.	.	.
COc1n[nH]c(C(=O)NCc2ccccc2)c1[N+](=O)[O-]	i	1	-1	108	11	112	.
CCOC(=O)c1sc(Nc2cccc(C)c2C)nc1C	.	.	-4	88	-17	91	-2.2
CCCCc1nnc(NC(=O)C2CC(=O)N(c3ccc(C)cc3)C2)s1 (stereo unspecified)	i	1.1	2	110	.	.	.
COc1cc(/C=C/C(=O)Nc2ccc3[nH]c(=O)[nH]c3c2)cc(OC)c1OC	i	1	3	104	.	.	.
CCOC(=O)Nc1cccc(OCC(=O)Nc2ccccc2OC)c1	i	0.81	0	147	.	.	-1.1
CCOc1ccc(NCc2cc3c(C(C)(C)C)nn(-c4ccccc4)c3[nH]c2=O)cc1	i	1.1	-9	100	.	.	-0.7
O=C(CCc1ccccc1)NCCC1=CCCCC1	i	1	-8	102	-34	81	-0.7

Part of the list above, with two lines to a compound.
Below each compound – HSV replic up, HSV replic up primary fold, PKD1 kinase inh, RGS16-Gao HTS, Insulin prom inh, Insulin prom inh cell count, GALR2 agonist
CCOC(=O)N1CCN(c2c(NCCCN3CCCC(C)C3)c(=O)c2=O)CC1 (stereo unspecified)
 : i, 0.95, 7, 106, ., ., -1.5
Cn1cnnc1SCC(=O)NN1C(=O)NC(C)(c2ccccc2)C1=O (stereo unspecified)
 : i, 1, ., 94, ., ., .
O=C1c2ccccc2NC(c2cccc(F)c2)N1Cc1ccco1 (stereo unspecified)
 : i, 0.83, 0, 53, -3, 115, -2.1
CCOC(=O)c1noc(C)c1C(=O)Nc1cccc(F)c1
 : i, 1, 10, 101, 22, 40, -2.6
Cc1cc(-c2ccccc2)nc(N(C)NC(=O)c2c(F)cccc2F)c1S(C)(=O)=O
 : i, 1.1, -1, 98, 35, 61, -0.3
CCOC(=O)N1CCC(N2Cc3cccc(C(=O)Nc4ccc(CC)cc4)c3C2=O)CC1
 : i, 0.83, -7, 95, 7, 53, -0.7
Cc1cc(C)nc(NC(=O)c2c(-c3ccccc3Cl)noc2C)c1
 : i, 0.9, 4, 100, -75, 85, 0.4

Screens: PubChem BioAssay, several laboratories
